Compound activity as filed in PubChem BioAssay.
VDR inh: inhibitors of human vitamin D receptor | VDR-SRC2-3 peptide fluorescence polarization, 2 h | Potency, µM, for the others: max response, negative = inhibition, actives largely listed as inhibitors | 400,000 tested, 0.93% active | P11473; active = well fitted inhibition curve with a large enough effect; inconclusive = small, poorly fitted or top-dose-only effect, or another doubt; inactive = no such curve, though single readings can be large or run the other way; also: series mostly up to about 120 µM
Target sequence (P11473 whole entry, looked up): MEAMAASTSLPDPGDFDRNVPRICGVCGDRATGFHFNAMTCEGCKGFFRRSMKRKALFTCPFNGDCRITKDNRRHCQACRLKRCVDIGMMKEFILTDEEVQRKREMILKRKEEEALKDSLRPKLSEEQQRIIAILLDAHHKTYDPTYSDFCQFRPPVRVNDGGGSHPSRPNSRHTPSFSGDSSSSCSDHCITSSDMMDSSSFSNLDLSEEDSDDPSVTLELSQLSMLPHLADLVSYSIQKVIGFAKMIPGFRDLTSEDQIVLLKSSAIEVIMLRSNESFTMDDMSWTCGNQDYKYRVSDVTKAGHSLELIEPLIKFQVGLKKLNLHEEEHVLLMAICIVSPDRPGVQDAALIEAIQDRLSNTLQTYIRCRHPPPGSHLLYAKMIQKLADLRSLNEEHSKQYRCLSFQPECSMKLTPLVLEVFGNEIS
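After 23 nl compound addition and a short centrifugation, plates sat for 2 hours at ambient temperature; polarization of fluorescence then indicated loss of VDR binding to peptide SRC2-3.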
Active calls of the source: *; ? = inconclusive; & = joins results of further samples; [ ] = remark or other dose. % is scaled to controls: 0 for no effect and ±100 for the full control effect; potency is read from the fitted curve at half-maximal effect. The list is partial; count on the stated rates, not on these rows.

The opening 4 compounds as a preview:
SMILES	VDR inh
CC(CC(=O)NNC(=O)c1cccc(Cl)c1)c1ccccc1 (centres undefined)	-3.7%
COc1cc2c(cc1OC)CN(CC(=O)Nc1ccc(Cl)cc1Cl)CC2	-18.9%
Nc1cc(-c2ccccc2)nn1S(=O)(=O)c1ccc(Br)cc1	-10.2%
Cc1ccccc1NC(=O)CC(O)(C(F)(F)F)C(F)(F)F	5.2%

The whole of this part, from the start:
SMILES	VDR inh
CC(CC(=O)NNC(=O)c1cccc(Cl)c1)c1ccccc1 (centres undefined)	-3.7%
COc1cc2c(cc1OC)CN(CC(=O)Nc1ccc(Cl)cc1Cl)CC2	-18.9%
Nc1cc(-c2ccccc2)nn1S(=O)(=O)c1ccc(Br)cc1	-10.2%
Cc1ccccc1NC(=O)CC(O)(C(F)(F)F)C(F)(F)F	5.2%
Nc1ccccc1C(=O)NCc1ccc(Cl)cc1	-7.8%
O=C(NCCc1ccc(Cl)cc1)c1cccn1-c1nnc(N2CCCCC2)s1	9.7%
COc1ccccc1NS(=O)(=O)c1cc(C(=O)NCCCN2CCCC2=O)ccc1C	7.5%
O=C(c1ccc2[nH]ccc2c1)N1CCCC(Nc2ccccc2)C1 (centres undefined)	3.7%
O=C(NC1CCN(S(=O)(=O)c2ccccc2)CC1)c1cccc(F)c1	-11.2%
Cc1cs/c(=N\N=C\c2ccccc2)n1Cc1ccco1	-18.8%
COCC1CCCC1OS(N)(=O)=O (centres undefined)	20.5%
O=C(CSc1cccc[n+]1[O-])Nc1cc(S(=O)(=O)N2CCOCC2)ccc1Cl	-24.7%
NS(=O)(=O)c1ccc(CCNc2nc3c(-c4cccc(F)c4)nnn3c3ccc(Cl)cc23)cc1	-8.4%
O=[N+]([O-])c1cc(-c2cnc3ccccc3n2)ccc1Oc1ccc(Br)cc1	-1.4%
CC(=O)Nc1ccc(S(=O)(=O)NC2CC3CCC2C3)cc1 (centres undefined)	-12.2%
COc1ccc(-c2nnc3n2N(C(C)=O)C(c2ccc(Cl)c(Cl)c2)=C(C(C)=O)S3)cc1	-5.2%
Cc1ccc(N=Cc2sccc2C)cc1C	-14.8%
CC1CC=C(c2ccccc2)C(=S)N1 (centres undefined)	-3.6%
COc1ccc(-c2c(C)nn3c(C(F)(F)F)cc(-c4ccccc4)nc23)cc1OC	-26.1%
Cn1c(=O)n(C)c2cc(CNCc3ccc(C(=O)O)cc3)ccc21	5.3%
Cc1ccc(O)c(C(=O)c2cnc3c(c2)c(C)nn3C)c1	8.4%
O=C(O)c1ccccc1NS(=O)(=O)c1ccc2c(c1)OCCO2	8.6%
O=C(NC1CCCCC1)C(c1ccco1)N(Cc1ccco1)C(=O)c1ccco1 (centres undefined)	7.3%
Cc1ccc2c(Cl)c(C(=O)Nc3ccc4c(c3)OCO4)sc2c1	-16.9%
COc1ccc(-n2nnnc2SCC(=O)N2C(C)CCCC2C)c(OC)c1 (centres undefined)	0.4%
C=CCn1c(SCC(=O)Nc2cc(C)on2)nc2c([nH]c3ccccc32)c1=O	17.7%
COc1ccc(N2C(=O)CC(Sc3n[nH]c(-c4cccc(C)c4)n3)C2=O)cc1 (centres undefined)	11.5%
O=C(NCCCCc1ccccc1)c1ccc(F)cc1	5.5%
COc1ccc(-c2nc(N)sc2C2(O)C(=O)Nc3c(Br)cc(F)cc32)cc1OC (centres undefined)	2.2%
CC1(C)Cc2nc(-c3ccccc3)nc(NNC(=O)c3ccco3)c2CO1	-0.1%
Cc1cc(N/N=C\c2ccccc2)nc(-c2ccccc2O)n1	9.4%
O=C(NCc1ccncc1)Nc1ccc(Cl)cc1Cl	-8.7%
COc1ccc(C(CNc2ccc(S(=O)(=O)N3CCCC3)cc2[N+](=O)[O-])N2CCCC2)cc1 (centres undefined)	-6.6%
Cc1cccc(N(C)S(=O)(=O)c2c(C)[nH]c(C)c2C(=O)N2CCCC2)c1	-25.0%
N#CCCNCC1(c2ccccc2)CCCC1	1.0%
Cc1ccc(C(=O)Nc2ccccc2)cc1S(=O)(=O)N1CCN(C)CC1	-5.5%
COc1cc(O)oc1C=Nc1ccc(Cl)cc1Cl	2.8%
COc1ccc(OCc2csc(N)n2)cc1	7.8%
COc1ccccc1NC(=O)CN1CCN(CC(=O)Nc2ccc(S(N)(=O)=O)cc2)CC1	-8.4%
COc1ccc(C=NNC(=O)c2ccccc2OCc2ccc(F)cc2)c(OC)c1	3.6%
CCCCn1cnc2sc(-c3ccccc3)cc2c1=O	16.1%
CCCC/C=C/[C@H](c1ccccc1)[C@H](CO)Cc1ccc2ccccc2c1	-13.8%
S=C(NCCc1ccccc1)N/N=C/c1c(Cl)cccc1Cl	2.1%
COc1ccc(CCNC(=O)CN2C(=O)NC3(CCOc4ccccc43)C2=O)cc1 (centres undefined)	9.5%
O=C([O-])c1cc(-c2ccccc2)cc(-c2ccccc2)[n+]1CCc1ccc(Cl)cc1	-0.7%
Cn1cnnc1Sc1ccc(CN2CCN(C3CCCC3)C(CCO)C2)o1 (centres undefined)	0.6%
O=C(O)COc1cccc2nsnc12	-4.8%
O=C(O)COc1ccccc1/C=N/NC(=O)CN1CCN(Cc2ccc(Cl)cc2)CC1	-8.7%
CCOc1ccc(N2C(=O)CC(Cc3ccccc3OC)C2=O)cc1 (centres undefined)	4.1%
CCCCCC#CCN1CCN(C23CC4CC(CC(C4)C2)C3)CC1	3.7%
Later entries
SMILES	VDR inh
CC(C)(c1ccccc1)c1ccc(OCCn2cnc3ccccc3c2=O)cc1	7.4%
Cc1c(Cl)cccc1Nc1nc(N)nc(CSC(=S)N2CCOCC2)n1	2.7%
CC(=O)Nc1cc2c(cc1C(=O)c1ccc(C)cc1)OCCO2	16.3%
CC(Sc1ccccc1)C(=O)NCC(c1ccco1)N1CCCCC1 (centres undefined)	-9.1%
Cc1occc1-c1nnc(SCC(=O)NCc2ccco2)n1CC(C)C	-2.7%
CC1(C)NC(=O)N(CCCCOc2ccc3c(c2)CCC3)C1=O	34.2%[activator]
COc1ccccc1N(CC(O)Cn1c2ccccc2c2ccccc21)S(=O)(=O)c1ccccc1 (centres undefined)	-2.4%
N#CSCC(=O)c1cccc2ccccc12	?
Cc1ccc(N(CC(=O)Nc2ccc(F)cc2F)S(=O)(=O)c2cccs2)cc1	4.6%
COC(=O)C1=C(C)[C@H](O)[C@@H](C)[C@](C)(c2cc(OC)c(C)c(OC)c2COc2ccccc2)O1	-0.4%
Cn1cc(CC(=O)NCCN2CCOCC2)c2ccccc21	1.5%
Cc1ccc(NC(=O)CSCC(=O)N2CCN(Cc3ccc4c(c3)OCO4)CC2)cc1	-9.7%
COC(=O)c1ccc2c(=O)n3c(nc2c1)SCC(c1ccccc1)=N3	-17.1%
Cn1nc(-c2ccccc2F)c2cc(C(=O)N3CCN(C(=O)c4ccco4)CC3)sc21	-11.7%
N/C(=N\OC(=O)c1cccs1)c1ccc(Cl)cc1	-15.2%
CC(=O)Nc1ccc(Nc2nnc(-c3ccc(C)c(S(=O)(=O)NCCO)c3)c3ccccc23)cc1	-12.2%
Nc1ccc(Br)c2c1C(=O)c1ccccc1C2=O	-8.0%
O=C1[C@@H](Oc2ccccc2)[C@@H](c2ccncc2)N1c1ccncc1	-21.2%
Cn1c(=O)c2c(-c3ccccc3)n(CCCO)cc2n(C)c1=O	10.9%
CN(CC(=O)Nc1ccc(OC(F)(F)F)cc1)C(=O)c1ccccc1SCC(=O)N1CCCC1	-10.0%

A different layout for some results above.
Cc1ccc(NC(=O)CSCC(=O)N2CCN(Cc3ccc4c(c3)OCO4)CC2)cc1
  VDR inh: -9.7%
COC(=O)c1ccc2c(=O)n3c(nc2c1)SCC(c1ccccc1)=N3
  VDR inh: -17.1%
Cn1nc(-c2ccccc2F)c2cc(C(=O)N3CCN(C(=O)c4ccco4)CC3)sc21
  VDR inh: -11.7%
N/C(=N\OC(=O)c1cccs1)c1ccc(Cl)cc1
  VDR inh: -15.2%

(listing goes on)
SMILES	VDR inh
COc1ccc2nc3cc(Cl)ccc3c(C#N)c2c1	19.6%
Cc1cccc(C)c1Nc1c(-c2ccc(O)cc2)nc2sccn12	?
OCCC1CN(Cc2ccccn2)CCN1C1CCCC1 (centres undefined)	-2.7%
COc1ccc2sc(-c3ccc(S(C)(=O)=O)cc3)c(-c3ccc(C(N)=O)cc3)c2c1	-0.5%
CCc1ccc(-c2cc(C)no2)cc1S(=O)(=O)N1CCCN(Cc2ccc(F)cc2)C1	7.9%
Cc1ccc(N(C(=O)c2ccc(S(=O)(=O)N3CCOCC3)cc2)C2C=CS(=O)(=O)C2)cc1 (centres undefined)	15.1%
O=C(CN1CCN(C(=O)c2ccccc2)CC1)Nc1cc(S(=O)(=O)N2CCCC2)ccc1Cl	13.1%
COc1ccc(CNCC(O)(c2ccccc2)c2ccccc2)cc1OC	-5.9%
C=CCn1c(SCn2nnc3ccccc3c2=O)nnc1C1CCCCC1	-0.2%
O=C(NC(=O)N1CCN(C(c2ccccc2)c2ccccc2)CC1)c1ccccc1	1.5%
C/C(=N/NC(=O)c1ccccn1)c1ccco1	1.6%
O=S(=O)(Nc1nc2n(n1)C(c1ccc(F)cc1)C=C(c1ccccc1)N2)c1ccc(Cl)cc1 (centres undefined)	16.8%
O=C(CN1CCN(Cc2ccc(F)cc2Cl)C1=O)NCCc1ccccc1	9.8%
CNC(=S)N1N=C(c2ccccc2)CC1c1ccccc1Cl (centres undefined)	8.3%
N#Cc1ccccc1OCC(=O)Nc1ccc(S(=O)(=O)N2CCOCC2)cc1	10.8%
CC(C)C(NC(=O)c1ccccc1NC(=O)c1ccccc1)C(=O)NNC(=O)c1ccncc1 (centres undefined)	-11.0%
CC(=O)c1cccc(Nc2c3c(nc4ccccc24)CCC3)c1	-12.2%
O=C(c1ccccc1)c1ccc2c(c1)OCCCO2	9.8%
Cc1cccc(OCC(=O)Nc2ccc3c(c2)nc2n3CCOC2)c1	-5.9%
COc1ccc(C(=O)CNc2ccccc2Br)cc1	?
COc1ccc(-c2csc(NC(=O)c3ccc(S(=O)(=O)N4CCc5ccccc5C4)cc3)n2)cc1	-2.4%
COc1cc(C(=O)NC(=S)Nc2csc(-c3ccc(F)cc3)n2)cc(OC)c1OC	-14.7%
Cc1cc(C)cc(OCCNC(=O)CCc2ccccc2)c1	-12.6%
CCOC(=O)c1c(N)n(-c2cc(C)cc(C)c2)c2nc3ccccc3nc12	4.2%
CCCN(CCC(=O)Nc1ccccc1F)CC1CC1	-2.4%
CCOC(=O)c1cc(S(=O)(=O)N2CCN(c3ccccc3)CC2)[nH]n1	3.1%
NNC(=O)c1ccc2c(c1)S(=O)(=O)NNC2=O	?
c1ccc(-c2ccccc2OCCN2CCCCC2)cc1	-23.7%
CCN1CCCC1CN(Cc1cc2cc(C)cc(C)c2[nH]c1=O)C(=O)Nc1ccccc1OC (centres undefined)	-0.1%
CCCc1nnc(SCC(=O)N2CCCCC2C)n1CC (centres undefined)	-2.5%
COC(=O)Cc1c(C(=O)OC)nnn1-c1ccc(OC)cc1	-7.2%
CCCCNC(=O)c1ccc2c(c1)S(=O)(=O)c1ccccc1C2=O	-12.3%
Cc1ccnc(NC(=O)c2cc3ccccc3oc2=O)c1	-6.1%
CCNc1nc(C23CC4CC(CC(C4)C2)C3)cs1	4.7%
O=C(NCc1ccccc1)c1cc2nc(C3CC3)cc(C(F)(F)F)n2n1	4.3%
OC(COc1ccccc1)CN1CCN(c2ncccn2)CC1 (centres undefined)	4.1%
O=C(NCCC1=CCCCC1)c1ccc2c(c1)N(Cc1ccc(Cl)cc1)C(=O)c1ccccc1S2=O (centres undefined)	6.1%
COC(CN(C(=O)CCl)C(C(=O)NC1CCCCC1)c1ccc(Cl)cc1)OC (centres undefined)	-10.5%
O=C1C2CC=CCC2C(=O)N1c1ncn[nH]1 (centres undefined)	5.8%
CCCCn1c(N)nc2ccccc21	-10.1%
CS(=O)(=O)c1cnc(-c2ccccc2)nc1-c1ccccc1Cl	-2.2%
Cc1ccc(OCC(=O)Nc2ccc(NC(=O)c3ccco3)cc2)c(C)c1	-5.9%
O=C(CCN1C(=O)/C(=C/c2ccccc2F)SC1=S)NCCc1ccc(O)cc1	6.6%
COC(=O)CC1Oc2ccccc2-n2cc(-c3ccc(F)cc3)nc21 (centres undefined)	0.8%
O=S1(=O)CCOC[C@H](Cc2ccccc2)N1Cc1cccc(C(F)(F)F)c1	-4.6%
CCC(C)(C)NC(=O)c1ccc2c(c1)N(CC(=O)N1CCCC1)C(=O)C(C)(C)O2	-16.6%
COC(=O)Cc1ccc(NC(=S)N2CCCC(C)C2)cc1 (centres undefined)	-8.7%
COc1cccc(-c2csc3ncnc(Sc4nnnn4C)c23)c1	-14.0%
COc1ccc(NS(=O)(=O)c2cc(NC(=O)c3cccnc3Cl)ccc2N2CCCC2)cc1	-13.3%
CCN(C(=O)CN1CCCCC1)C1(C)C(=O)c2ccccc2C1=O	2.1%
Later entries:
SMILES	VDR inh
CCOc1ccc2c(c1)c(=O)c(C(=O)c1ccccc1)cn2Cc1ccccc1	-8.3%
Cc1ccc(Cl)cc1N1CCN(C(=O)c2c(C)oc3ncnc(N4CCOCC4)c23)CC1	3.0%
COc1ccc(-c2c(C#N)sc(C(N)=O)c2-c2ccc(OC)cc2)cc1	-11.5%
CCOC(=O)c1ccc(Cl)c(NC(=O)c2ccc(-c3ccccc3)cc2)c1	-2.1%
CCC1CC2(C)NC(=O)c3c(sc4c3CC(C)(C)OC4)N2C1=O (centres undefined)	?
COc1ccc(S(=O)(=O)N(C)CC(=O)NCCc2ccccc2)cc1OC	-0.4%
Cc1ccc(-c2nnn(CC(=O)N(CC(=O)NC3CCCC3)c3cccc(F)c3)n2)o1	-13.9%
COc1cc2c3nc4n(c(=O)c3n(CC(=O)NCC3CCCO3)c2cc1OC)CCS4 (centres undefined)	-2.4%
COc1ccccc1[C@@H]1C(c2ccccc2)=NN(c2ccccc2)[C@H]1C(=O)N1CCOC1=O	-12.4%&3.7%
